Screens (PubChem)
Arbovirus inh: blocks arbovirus infection; actives 0.37% (n = 200,000); arbovirus infection cell-based antiviral screen; inhibition, % at 10 µM; AID 1251;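 active means inhibition from about 30%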;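 further: bluetongue infection of BSR cells; cell survival read as ATP light after 72 h; 0% = infected wells without compound and 100% = uninfected wells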
RecA intein inh: blocks M. tuberculosis RecA intein splicing. actives 0.75% (n = 290,000). P9WHJ3. inhibition, %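 (about 9 µM by stock and volumes)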. cell-free RecA intein splicing, fluorescence. AID 2221; in the data active means inhibition above about 30%; inconclusive means no clear call, values can overlap the other calls;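 further: 0% = vehicle wells and 100% = reference inhibitor control wells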
Target sequence (P9WHJ3 whole entry, looked up): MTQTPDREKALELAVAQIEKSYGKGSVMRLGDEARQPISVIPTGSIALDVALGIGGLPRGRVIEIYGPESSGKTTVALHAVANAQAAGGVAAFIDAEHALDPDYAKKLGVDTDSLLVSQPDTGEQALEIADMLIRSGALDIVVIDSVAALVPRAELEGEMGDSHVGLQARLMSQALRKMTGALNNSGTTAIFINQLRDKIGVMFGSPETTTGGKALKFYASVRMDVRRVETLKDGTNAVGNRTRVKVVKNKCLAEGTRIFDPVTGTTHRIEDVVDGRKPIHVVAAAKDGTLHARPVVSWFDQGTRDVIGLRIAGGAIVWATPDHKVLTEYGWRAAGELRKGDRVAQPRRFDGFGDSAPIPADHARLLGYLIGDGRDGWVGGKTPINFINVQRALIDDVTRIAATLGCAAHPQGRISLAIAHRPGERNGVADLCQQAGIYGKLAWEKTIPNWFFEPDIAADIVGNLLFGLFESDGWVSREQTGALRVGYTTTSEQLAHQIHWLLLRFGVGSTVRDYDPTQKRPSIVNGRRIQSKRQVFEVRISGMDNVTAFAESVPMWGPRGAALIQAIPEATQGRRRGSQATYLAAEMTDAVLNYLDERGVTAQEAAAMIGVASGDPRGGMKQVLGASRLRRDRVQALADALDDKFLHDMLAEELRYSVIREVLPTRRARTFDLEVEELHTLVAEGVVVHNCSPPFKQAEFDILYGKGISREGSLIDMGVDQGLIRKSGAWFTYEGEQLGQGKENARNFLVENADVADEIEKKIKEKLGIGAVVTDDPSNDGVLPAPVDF
Mtb betalactam: beta-lactam sensitization of Mtb H37Rv; M. tuberculosis H37Rv growth with meropenem, percent inhibition; hits of this screen are not shown here; inhibition, % at 25 µM; actives 0.27% (n = 330,000); AID 434955;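 active means about 74% or more and at least 40 points above the plate without the antibiotic, then above 30% in a dose series; inconclusive means first-round hits that could not be retested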;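 further: growth measured after seven days incubation then overnight dye step; 0% = bacteria only wells and 100% = bacteria with antibiotic; twin plates without the antibiotic show which effects depend on it; some results filed as inactive read as strong as hits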
Mtb H37Rv: M. tuberculosis H37Rv growth inhibitors, H37Rv strain (AID 1626); M. tuberculosis H37Rv growth inhibition; higher % means a stronger effect; one-dose inhibition, % at 10 µM; IC50 in µM for titrated hits; actives 0.95% (n = 220,000);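 active means confirmed in a dose series; inconclusive means inhibition above 80% but not taken into the dose series; inactive means below 80% or under 30% at every dose of the series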;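 further: bacteria incubated seven days before Alamar blue readout; 0% = bacteria only wells and 100% = bacteria with antibiotic wells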
YopH PTP inh: inhibitors of Yersinia enterocolitica YopH tyrosine phosphatase; fluorescence Ex485/Em525; inhibition, %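 (about 10 µM by stock and volumes)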; actives 0.16% (n = 140,000); AID 898;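 active means inhibition of 50% or more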;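 further: controls were vehicle for no effect and minimum signal wells for full effect; inactives centre near -20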
Arbovirus inh repeat: recorded beside Arbovirus inh, whose call it bears; inhibition, %; measured here: 10K subset replicate screen; many hits read low in the repeat;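 first of two repeat runs on a subset; 0% = infected and 100% = uninfected wells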
An asterisk follows results filed as active; ? = inconclusive; nt = not tested or not shown. Not all compounds are listed (hit frequency here may not be typical).

SMILES	Arbovirus inh	RecA intein inh	Mtb betalactam	Mtb H37Rv	YopH PTP inh	others
Nc1nc(NCCN2CCOCC2)nc(NCc2ccccc2)c1[N+](=O)[O-]	nt	-0.6	-6	-11%	nt
CC(C)(C)c1cc(NC(=O)c2cc(F)c(F)c(F)c2F)no1	15	0.2	14	7%	-44
O=C(NCCOC(=O)c1ccc(Cl)c(S(=O)(=O)N2CCCCC2)c1)c1ccncc1	2	0.3	-4	-5%	-40
N#CCCn1cc(C(=O)NCc2ccccc2)c(-c2cccs2)n1	-3	-1.3	-11	-3%	nt
CCOC(=O)c1nnn(-c2nonc2N)c1CSc1nnc(N)s1	5	1.3	-8	-12%	nt
O=C(NCc1ccccc1)c1c[nH]c2cc3c(cc2c1=O)OCCO3	-5	0.2	-4	-9%	46
Cc1c(CN2CCC(Oc3ccc(C(=O)N4CCCCC4)cc3)CC2)cnn1C	nt	1.5	-12	nt	nt
CN(C)/C=N/N(C)c1ncccc1[N+](=O)[O-]	nt	14	-10	-8%	nt
COC(=O)CNC(=O)c1cccc(-c2ccc(OC)cc2)c1	-7	-0.2	-7	8%	nt
COc1ccc(C)cc1NC(=O)CCN1CCCC1	10	2.7	-1	-3%	7
CC1CCN(S(=O)(=O)c2ccc3nc(N4CCN(c5ccccc5)CC4)ccc3c2)CC1	nt	3.3	5	nt	nt
CCOC(=O)c1sc(NC(=O)CN2C(=O)NC3(CC(C)CC(C)(C)C3)C2=O)cc1C (stereo not given)	nt	4.5	85	nt	nt
O=C(O)C1CCN(C(=O)c2ccccc2Cl)CC1	5	-0.6	-1	-9%	4
O=C(/C=C/c1ccc(Cl)cc1Cl)N(Cc1ccccc1)C1CCS(=O)(=O)C1 (stereo not given)	10	-1.3	3	10%	-44
COc1ccccc1N1CCN(C(=O)CSc2nnc(NC(=O)C3CC3)s2)CC1	17	-1.7	-8	-3%	-26
C=CCOc1ccc(C2c3c(oc4ccccc4c3=O)C(=O)N2CCCN2CCOCC2)cc1 (stereo not given)	1	2.1	-8	-8%	-7
Cc1cc(C)n(-c2ccc(C(=O)NCc3ccc(F)cc3)cc2)n1	0	0.0	-13	4%	nt
O=C(c1cc(-c2ccc(Cl)cc2Cl)on1)N1CCN(C(=O)c2ccco2)CC1	-8	5.8	-9	-10%	23
Cc1ccc(N=C2SCCCN2C(=O)c2cccc(N3C(=O)CCC3=O)c2)cc1Cl	nt	-3.2	-7	nt	nt
NC(=O)C1CCN(CC(O)CSc2ccc(F)cc2)CC1 (stereo not given)	nt	-1.9	0	nt	nt
COc1ccccc1OCC(=O)Nc1ccc(-c2nnc(-c3ccco3)o2)cc1	-2	-1.5	5	-2%	nt
O=C(Nc1c2c(nn1-c1ccc(F)cc1)CS(=O)(=O)C2)C12CC3CC(CC(C3)C1)C2	4	0.3	-9	nt	-30
COC(=O)c1c(NC(=O)CN2CCN(c3cccc(Cl)c3)CC2)sc(C)c1C	3	1.2	-3	7%	-10
COc1ccc(CCN2C(=O)CC(Cc3cccc(C)c3)C2=O)cc1OC (stereo not given)	0	2.0	0	1%	nt
CN(C(=O)c1cccc(C(F)(F)F)c1)C1CCCc2ccccc21 (stereo not given)	nt	4.5	2	nt	nt
COc1ccccc1Nc1ncc(C(=O)N2CCN(Cc3ccc(OC)c(OC)c3OC)CC2)c2ccccc12	-10	1.3	6	3%	nt
CC(C)Oc1cccc(C(=O)C2CCCN(C(=O)c3cncs3)C2)c1 (stereo not given)	nt	-2.5	-2	nt	nt
CCN(Cc1nc(-c2ccc(OC)c(OC)c2)no1)C(=O)c1ccoc1C	nt	1.3	-10	nt	nt
O=C(Nc1cccc(N2CCCC2)c1)c1cccs1	-3	5.6	0	-1%	30
CC(=O)N1CCN(C(=O)C2(NC(=O)Nc3cccc(F)c3)CCCCC2)CC1	nt	-3.5	-1	nt	nt
CCN(CC)C1=CC(=O)OC12CCCCC2	10	-1.3	1	-2%	-19	Arbovirus inh repeat=3
CC(C)C(=O)Nc1ccccc1Cc1ccccc1	4	0.9	-4	2%	nt
O=c1[nH]c(Cc2cccs2)nc2ccccc12	-2	-1.1	-9	1%	-33
COc1cc(OC)cc(C(=O)Nc2cc(NC(=O)c3ccco3)ccc2OC)c1	-7	-2.1	17	6%	-34	Arbovirus inh repeat=1
Cc1[nH]c2ccc(C(=O)N3CCN(c4cccc(Cl)c4)CC3)cc2c1C	nt	14	-3	nt	nt
COC(=O)c1cc(-c2ccccc2)n[nH]1	0	1.6	55	-14%	10
COC(=O)CC1C(=O)NCCN1C(=O)CSc1nc2ccccc2s1 (stereo not given)	-3	-3.4	6	5%	nt
O=C(c1ccccc1)N1CCN(C2CCCCCC2)CC1	2	-0.1	7	-1%	-27
CC(C)C(=O)OCC(=O)NCc1ccccc1Cl	0	1.0	0	3%	nt
CC(OC(=O)c1cc(S(=O)(=O)Nc2ccc(F)cc2)ccc1Cl)C(=O)Nc1ccc2c(c1)OCCO2 (stereo not given)	3	7.8	-1	9%	-30
CCOc1cc2[nH]c(=S)n(CCCC(=O)NCc3ccco3)c(=O)c2cc1OCC	-8	-1.3	-1	-10%	-33
CCOc1ccc(NC(=S)N(Cc2ccc(Cl)cc2)Cc2ccco2)cc1	-14	12	65	15%	-48
Cc1[nH]c2ccc(F)cc2c1CCN1C(=O)OC(C)(C)C1(C)O (stereo not given)	nt	-3.4	-2	5%	nt
Cc1ccc(CNC(=O)c2ccc(Br)o2)cc1	-1	3.4	1	7%	-29	Arbovirus inh repeat=-2
CC(=O)Nc1ccc(S(=O)(=O)N2CCC(n3cnc4cc(F)ccc43)CC2)cc1	9	-2.7	-2	0%	-42
CCCN1CCN(CCCNC(=O)CN2C(=O)COc3ccccc32)CC1	2	-1.4	-5	1%	-34
CC1=NN2C(=N)/C(=C\c3cc(C)n(-c4ccc(C)cc4)c3C)C(=O)N=C2S1	nt	-5.9	-9	-6%	nt
COc1ccc(/C=N/Nc2ncnc3sc(C)c(C)c23)cc1	-24	-5.2	94	8%	-16
COc1ccc(C(C(O)C(=O)c2c[nH]c3ccccc23)N2CCN(c3ccccc3)CC2)cc1 (stereo not given)	-25	6.5	79	nt	-44
Cn1c(-c2ccc(Br)o2)nc2cc(Br)ccc21	2	1.9	18	63%	-29
COc1ccc(Br)cc1CNc1ccc(S(N)(=O)=O)cc1	21	0.7	-2	7%	-15
CCc1ccc(S(=O)(=O)NCC(O)COc2ccc(OC)cc2)cc1 (stereo not given)	nt	2.1	-3	-5%	nt
N#Cc1ccccc1S(=O)(=O)N1CCN(C(=O)C2CCCC2)CC1	nt	2.4	-7	nt	nt
O=C(Nc1nc2ccccc2[nH]1)c1ccc(S(=O)(=O)N2CCOCC2)cc1	4	3.4	3	2%	nt
Cc1ccc(-c2nn3c(-c4ccco4)nnc3c3ccccc23)cc1S(=O)(=O)NCC1CCCO1 (stereo not given)	-15	-2.8	1	0%	-31
O=C(NCc1ccc(F)cc1)c1cc(S(=O)(=O)N2CCCCC2)c[nH]1	nt	-0.1	6	nt	nt
CCS(=O)(=O)Nc1cccc(-c2nc3cccnc3s2)c1C	-4	1.4	0	8%	-52
CC(=O)c1ccc(S(=O)(=O)N2CCCC2)cc1	8	-0.1	nt	-1%	1
CCC(C)Cn1c(C(C)O)nc2ccccc21 (stereo not given)	7	1.9	2	-2%	9
COc1ccccc1CN1CC(C(=O)N(Cc2cnn(C)c2)C(C)C)CCC1=O (stereo not given)	nt	2.0	5	nt	nt
(more compounds)
SMILES	Arbovirus inh	RecA intein inh	Mtb betalactam	Mtb H37Rv	YopH PTP inh	others
COc1ccc(C(=O)Cn2cnc3ccccc3c2=O)c(OC)c1	nt	-2.5	-1	nt	nt
O=C(c1cccc([N+](=O)[O-])c1)N1CCN(c2ncccn2)CC1	nt	-1.4	-4	nt	nt
Cc1c(C(=O)N2CCCC2)nnn1-c1nonc1N	2	0.3	-6	-6%	-9
CCCn1nc(C(=O)NC2CCCc3ccccc32)c2ccccc2c1=O (stereo not given)	-3	13	9	16%	-19
O=C1CC(c2ccccc2)CC(O)=C1C=NCCc1ccccc1 (stereo not given)	4	-9.1	-5	7%	nt
CSc1ncccc1C(=O)OCn1nnc2ccccc2c1=O	8	0.7	?	8%	-29
COc1ccc2c(-c3ccccc3)cc(SC(C)C(N)=O)nc2c1 (stereo not given)	-9	4.7	1	16%	nt
Cn1c(Cl)c(/C=N/OC(=O)c2ccccc2Cl)c2ccccc21	-1	-2.2	56	76%	-9
Cc1cc(C)nc(N/N=C/c2c(CO)cnc(C)c2O)n1	nt	-12	-4	nt	nt
COc1ccc(/C(O)=C2/C(=O)C(=O)N(c3ccccn3)C2c2cccc(Cl)c2)cc1 (stereo not given)	nt	1.5	4	nt	nt
CC(C)[C@@H]1COC(c2cccc(C3=N[C@H](C(C)C)CO3)c2)=N1	nt	0.9	3	nt	nt
CN(CCc1cnn(C)c1)Cc1nc(CC2CC2)no1	3	0.6	-7	2%	nt
O=C(O)c1cc(Cl)c2c(c1)[C@@H]1C=CC[C@@H]1[C@H](c1ccc(S(=O)(=O)N3CCOCC3)cc1)N2	4	8.2	-3	-5%	-21
COC(=O)c1sc2ccccc2c1NC(=O)c1ccc(S(=O)(=O)N2CCCCC2C)cc1 (stereo not given)	-3	-1.6	3	-5%	-28
O=C(c1noc2c1CCCC2)N1CCc2ccccc2C1	nt	-0.9	6	nt	nt
O=C(Cc1ccccc1)NCC(=O)Nc1ccccc1Br	nt	0.0	4	nt	nt

Molecules from the list above with a Cl atom (13):
SMILES	Arbovirus inh	RecA intein inh	Mtb betalactam	Mtb H37Rv	YopH PTP inh	others
O=C(NCCOC(=O)c1ccc(Cl)c(S(=O)(=O)N2CCCCC2)c1)c1ccncc1	2	0.3	-4	-5%	-40
O=C(O)C1CCN(C(=O)c2ccccc2Cl)CC1	5	-0.6	-1	-9%	4
O=C(/C=C/c1ccc(Cl)cc1Cl)N(Cc1ccccc1)C1CCS(=O)(=O)C1 (stereo not given)	10	-1.3	3	10%	-44
O=C(c1cc(-c2ccc(Cl)cc2Cl)on1)N1CCN(C(=O)c2ccco2)CC1	-8	5.8	-9	-10%	23
Cc1ccc(N=C2SCCCN2C(=O)c2cccc(N3C(=O)CCC3=O)c2)cc1Cl	nt	-3.2	-7	nt	nt
COC(=O)c1c(NC(=O)CN2CCN(c3cccc(Cl)c3)CC2)sc(C)c1C	3	1.2	-3	7%	-10
Cc1[nH]c2ccc(C(=O)N3CCN(c4cccc(Cl)c4)CC3)cc2c1C	nt	14	-3	nt	nt
CC(C)C(=O)OCC(=O)NCc1ccccc1Cl	0	1.0	0	3%	nt
CC(OC(=O)c1cc(S(=O)(=O)Nc2ccc(F)cc2)ccc1Cl)C(=O)Nc1ccc2c(c1)OCCO2 (stereo not given)	3	7.8	-1	9%	-30
CCOc1ccc(NC(=S)N(Cc2ccc(Cl)cc2)Cc2ccco2)cc1	-14	12	65	15%	-48
Cn1c(Cl)c(/C=N/OC(=O)c2ccccc2Cl)c2ccccc21	-1	-2.2	56	76%	-9
COc1ccc(/C(O)=C2/C(=O)C(=O)N(c3ccccn3)C2c2cccc(Cl)c2)cc1 (stereo not given)	nt	1.5	4	nt	nt
O=C(O)c1cc(Cl)c2c(c1)[C@@H]1C=CC[C@@H]1[C@H](c1ccc(S(=O)(=O)N3CCOCC3)cc1)N2	4	8.2	-3	-5%	-21
